# Screens deposited in PubChem BioAssay by National Center for Advancing Translational Sciences (NCATS).
# TRPML1 inh: qHTS for Inhibitors of the Human Mucolipin Transient Receptor Potential 1 (TRPML1); Mucolipin-1 (Homo sapiens), Q9GZU1; TRPML1-inducible cells, Ca2+ dye fluorescence, FDSS; active compounds read low; inhibition of EC80 agonist-evoked calcium signal; activity change, negative = inhibition, % (concentration not given with the values); hit rate 0.02% among 390,000; in the data active means activity change below about -50%; inconclusive means about -30% to -50%; inactive means above about -30%;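 also: stimulus is agonist 54-4 at its EC80 concentration; % is scaled to controls: 0 for no effect and ±100 for the full control effect; the text of the record puts the active cut at -80%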
# Target sequence (Q9GZU1 whole entry, looked up): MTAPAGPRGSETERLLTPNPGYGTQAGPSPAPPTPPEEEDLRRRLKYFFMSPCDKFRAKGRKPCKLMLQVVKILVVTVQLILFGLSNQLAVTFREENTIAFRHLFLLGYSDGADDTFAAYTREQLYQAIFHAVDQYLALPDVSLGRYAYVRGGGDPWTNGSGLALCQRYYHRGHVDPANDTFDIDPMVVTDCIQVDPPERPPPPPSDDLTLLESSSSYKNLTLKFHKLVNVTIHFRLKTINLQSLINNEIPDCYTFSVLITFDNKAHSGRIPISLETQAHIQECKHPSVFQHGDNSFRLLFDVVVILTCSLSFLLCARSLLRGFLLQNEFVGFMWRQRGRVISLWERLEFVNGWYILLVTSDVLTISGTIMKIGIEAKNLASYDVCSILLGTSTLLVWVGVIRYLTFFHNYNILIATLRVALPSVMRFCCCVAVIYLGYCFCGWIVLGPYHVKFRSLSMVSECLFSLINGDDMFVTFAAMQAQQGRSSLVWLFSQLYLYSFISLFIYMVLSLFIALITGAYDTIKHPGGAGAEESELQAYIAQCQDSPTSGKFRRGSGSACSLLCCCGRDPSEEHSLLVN
#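 TRPML1-DL cells, Tet-induced overnight (~16 h, 37 °C) at 1,500 cells/well, were loaded with Ca8 no-wash dye plus quencher for 45-90 min at room temperature. Compounds were pinned during FDSS kinetic reading; agonist 54-4 at EC80 (4 uM final) then added.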
# ClpP mod: qHTS Assay for Activators of ClpP. ATP-dependent Clp protease proteolytic subunit (Bacillus subtilis (strain 168)), P80244. purified B. subtilis ClpP, FRET peptide cleavage, 20 min. Potency, µM (top dose mostly 57.5 µM), for the others: at the highest dose activity change, negative = active. hit rate 1.9% among 340,000; active = well fitted falling curve with a large enough effect; inconclusive = small, poorly fitted or top-dose-only effect; inactive = no such curve, though single readings can be large or run the other way; also: potency is read from the fitted curve at half-maximal effect; the source files actives as falling curves though it sought activators and does not explain the sign; nearly all actives have a fitted effect of over 65% in size; many hits overshoot -100%
# Target sequence (P80244 whole entry, looked up): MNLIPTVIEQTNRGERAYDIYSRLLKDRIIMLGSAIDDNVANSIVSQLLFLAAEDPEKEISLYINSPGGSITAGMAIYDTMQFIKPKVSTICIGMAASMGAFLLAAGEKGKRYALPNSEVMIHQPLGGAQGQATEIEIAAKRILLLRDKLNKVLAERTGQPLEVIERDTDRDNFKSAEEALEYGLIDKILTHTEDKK
#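 ClpP 10 microg/mL final, pH 8 Tris/KCl buffer with BSA, glycerol, Tween-20; compound pinned in; FRET-FV substrate; RT 20 min; Ex320/Em430; ΔFRET vs ADEP 5.8 microM, DMSO, no enzyme.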
# gsp antag: qHTS for Antagonists of gsp, the Etiologic Mutation Responsible for Fibrous Dysplasia/McCune-Albright Syndrome: qHTS; gsp-mutant cells, cAMP HTRF, 30 min; control for the full effect not named in the record; Potency, µM (series often up to 76.9 µM), for inactives: top-dose activity change, negative = inhibition, actives largely listed as inhibitors; hit rate 0.4% among 340,000; AID 624288, 2012; active = falling curve of any shape with a large fitted effect; inconclusive = falling curve, mostly with a smaller effect; inactive = flat or rising curve; cell line not stated here;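 also: intracellular cAMP measured with PDE inhibitor Ro 20-1724 present during compound exposure; potency is read from the fitted curve at half-maximal effect; % is scaled to controls: 0 for no effect and ±100 for the full control effect; nearly all actives have a fitted effect of over 65% in size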
#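 Measurement of cellular cAMP by homogeneous time-resolved fluorescence following a 30 min compound exposure at 37C. The PDE inhibitor […] was present throughout; the assay buffer was DPBS with 0.05% BSA and 0.005% Tween 20.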
# Menin-MLL FL inh: qHTS Assay for Inhibitors Targeting the Menin-MLL Interaction in MLL Related Leukemias: Competition With Fluorescein Labeled MLL-derived Peptide | Fluorescence polarization, fluorescein-MLL peptide displacement from menin | FP activity change, % at 61.4 µM | 290,000 tested, under 10 active; inconclusive = falling polarisation curve, or a change in total fluorescence; inactive = total fluorescence flat and polarisation flat or rising; no compound was filed as active; the % refers to the polarisation; negative = inhibition;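 also: % of control where 0% means no effect; inhibitors lower the polarisation; unlabelled MLL peptide was the positive control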
# TRPML1 ag: qHTS for Agonists of the Human Mucolipin Transient Receptor Potential 1 (TRPML1). Mucolipin-1 (Homo sapiens), Q9GZU1. TRPML1-expressing cells, Ca2+ dye fluorescence, FDSS; host cell line not named in the record; reference of the full effect not given here. hit rate 0.12% among 410,000. activation, % (test concentration not listed); in the data active = activation above about 50%; inconclusive = about 30% to 50%; inactive = below about 30%; also: 0% is about no effect; the text of the record puts the active cut at 80%
#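 Tet-induced TRPML1-DL cells, 1,500 per well, cultured overnight, were loaded with a no-wash Ca2+ dye for 45–90 min. Calcium fluorescence was recorded on the FDSS for 110 s after compound addition, before the EC80 agonist (4 uM 54-4) was added.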
# gsp ag: qHTS for Agonist of gsp, the Etiologic Mutation Responsible for Fibrous Dysplasia/McCune-Albright Syndrome: qHTS | gsp mutant cells, cAMP HTRF, 30 min; control for the full effect not named in the record | Potency, µM (doses to about 76.9 µM), inactives show at the highest dose activation (cAMP increase), most hits filed as activators | hit rate 0.13% among 340,000; active = well fitted activation curve with a large enough effect; inconclusive = small, poorly fitted or top-dose-only effect, or another doubt; inactive = no such curve, though single readings can be large or run the other way; cell line not stated here;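 also: phosphodiesterase inhibitor Ro 20-1724 added with compounds to block cAMP breakdown; potency is read from the fitted curve at half-maximal effect; nearly all actives have a fitted effect of over 60% in size; about a fifth of the inactives were tested at one dose only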
#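 Cells in DMEM/10% FBS with G418 were pretreated with compounds in DMSO plus […] (300 uM stock) for 30 min at 37C. cAMP was measured by HTRF (cAMP-d2 plus anti-cAMP antibody-K) after 30 min at room temperature.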
# The depositor's hits bear a star; ? = inconclusive; / = not tested or not shown; & = joins results of further samples; [ ] = dose if it differs, or a comment.
# Each structure is followed by: TRPML1 inh | ClpP mod | gsp antag | Menin-MLL FL inh | TRPML1 ag | gsp ag
- Cc1ccc(C(=O)NCC(=O)NC2CCCCCC2)cc1
  -6 | -6.7% | 10% | 4.1 | 0.6 | -4%[15.4 µM]
- C=CCn1c(SCC(=O)Nc2cc(C)c(Cl)cc2OC)nnc1-c1ccco1
  14 | -0.9% | 9% | 0.9 | 2.5 | -33%[inhibitor]
- CCN(CCn1cccn1)C(=O)CCc1nnc(-c2ccc3c(c2)OCO3)o1
  -11 | / | -6% | 0.7 | 0.6 | 3%[15.4 µM]
- CSc1ccc(/C=N/n2c(C)nc3ccccc3c2=O)cc1
  18 | 0.3% | 4% | 3.2 | 2.2 | -38%[inhibitor]
- Cc1cccc(CCNC(=O)C2CCC(CNS(=O)(=O)c3ccccc3)CC2)c1 (stereo unspecified)
  7 | 2.5% | / | / | 1.1 | /
- CN(C)CCNc1oc(COc2ccc(Cl)cc2Cl)nc1C#N
  -4 | -8.0% | 3% | -26 | 2.8 | ?
- C=C(C(=O)c1ccccc1)C(c1ccccc1)C(C)C(=O)c1ccccc1 (stereo unspecified)
  0 | -1.3% | 2% | 1.3 | 2.0 | -66%[inhibitor]
- O=C(Nc1ccccc1C(F)(F)F)N1CCN(c2ccccn2)CC1
  -15 | 3.9% | 5% | -3.0 | 1.1 | -97%[inhibitor]
- COc1cccc(CNC(=O)c2cnc(-c3ccccn3)nc2C(F)(F)F)c1
  2 | 0.8% | 5% | 0.0 | 0.9 | 3%[15.4 µM]
- CCc1n[nH]c(=S)n1/N=C/C(C)=C\c1ccccc1
  / | 2.2% | -6% | 0.3 | / | -24%
- CCCc1nnc(NC(=O)Cn2c(=O)sc3ccccc32)s1
  4 | 0.4% | -17% | 3.0 | 2.4 | 14%
- CCN1CCN(C(=O)C2CCCN(S(=O)(=O)c3cc(Cl)ccc3Cl)C2)CC1 (stereo unspecified)
  -3 | -4.7% | -1% | / | 0.9 | -3%
- CCOC(=O)Cn1c(CN2CCOCC2)nc2c1c(=O)n(C)c(=O)n2C
  3 | -2.0% | 7% | -4.3 | 0.1 | -61%[inhibitor]
- C[C@H](O)[C@@H]1C(=O)N2CCc3ccc(-c4ccccc4)cc3[C@@H]2C[C@@H]1N(C)C(=O)c1ccco1
  31 | 1.7% | / | / | 1.8 | 24%
- COc1ccccc1CNC(=O)CN1CCN(S(=O)(=O)c2cccs2)CC1
  19 | 0.9% | -4% | -1.4 | 0.6 | -6%
- C/C(=C\C(=O)C(F)(F)F)Nc1ccc(C(F)(F)F)cc1
  -2 | -1.1% | 1% | 0.7 | -0.4 | -15%
- CCN(CC)CCNC(=O)c1ccc2c(=O)n(C3CCCC3)c(=S)[nH]c2c1
  15 | -3.7% | 11% | 9.3 | 0.8 | 16%
- COc1ccc(OC)c(C(=O)c2ccc(C(=O)Nc3ccc(NC(C)=O)cc3)cc2)c1
  -20 | 3.3% | 5% | / | 0.3 | -65%[inhibitor]
- CC1=C(C(=O)N2CCOCC2)CC(CC(=O)NCCCCc2ccccc2)C(=O)N1Cc1ccc(C(C)(C)C)cc1 (stereo unspecified)
  10 | 2.3% | / | / | 0.3 | ?
- NC(=O)C1CC2(C1)CC(C(N)=O)C2 (stereo unspecified)
  4 | 1.2% | 12% | / | -0.2 | -11%[15.4 µM]
- COc1ccc(-c2nc3ccccn3c2NCc2ccc3c(c2)OCO3)cc1
  -6 | ? | -8% | 1.8 | -0.5 | ?
- Cc1ccc(O)c(Nc2nc3ccccc3c3nncn23)c1
  -2 | -1.6% | / | / | 0.3 | /
- S=C(NCCc1ccccc1)Nc1ccccc1Cl
  5 | -0.7% | 1% | -0.9 | -0.3 | -16%
- CCOCCCN(C(=O)CCC(=O)Nc1cc(C)on1)C(C(=O)NC(C)(C)CC)c1cccc(OC)c1OC (stereo unspecified)
  22 | / | / | 4.0 | -0.3 | -5%[15.4 µM]
- Cc1noc(C)c1COC(=O)Cn1c(C)nc2ccccc21
  11 | -1.9% | -16% | 0.6 | 0.2 | 3%
- CCSC1=NC2(CCN(C(=O)NC3CCCCC3)CC2)N=C1c1ccc(C)c(C)c1
  -8 | 0.9% | / | / | 1.2 | /
- CC(C)CNC(=O)c1cnn2c(C(F)(F)F)cc(C(F)(F)F)nc12
  -10 | -5.4% | -1% | 6.3 | -0.4 | -2%[15.4 µM]
- CC(=O)c1c(C)[nH]c(C(=O)Nc2ccc(F)c(F)c2F)c1C
  1 | / | 12% | 3.5 | -0.3 | 17%[15.4 µM]
- CCOC(=O)C1CCCN(C(=O)c2oc3ccccc3c2C)CC1 (stereo unspecified)
  -16 | -0.4% | / | / | 0.0 | /
- CCOC(=O)C1CCN(C(c2ccccn2)c2c(C)[nH]c3ccccc23)CC1 (stereo unspecified)
  -5 | 519% | 0% | 1.1 | -0.3 | 4%

# In another format: 2 of the compounds above
Structure	TRPML1 inh	ClpP mod	gsp antag	Menin-MLL FL inh	TRPML1 ag	gsp ag
O=C(Nc1ccccc1C(F)(F)F)N1CCN(c2ccccn2)CC1	-15	3.9%	5%	-3.0	1.1	-97%[inhibitor]
COc1cccc(CNC(=O)c2cnc(-c3ccccn3)nc2C(F)(F)F)c1	2	0.8%	5%	0.0	0.9	3%[15.4 µM]

# New compounds follow:
# Each structure is followed by: TRPML1 inh | ClpP mod | gsp antag | Menin-MLL FL inh | TRPML1 ag | gsp ag
- COc1ccc(NS(=O)(=O)c2cc(NC(=O)Cc3cccs3)ccc2C)cc1
  35 | 0.3% | 11% | 5.7 | 0.2 | 0%
- CCc1ccc(NC(=O)Cn2c(=O)oc3cc(S(=O)(=O)N4CCCCCC4)ccc32)cc1
  1 | -11% | / | / | 0.5 | /
- COc1ccc(CCNC(=O)c2coc3ccccc3c2=O)cc1OC
  2 | / | -8% | ? | -1.1 | -13%[15.4 µM]
- COc1cc(CC(=O)NC2CCCc3ccccc32)cc(OC)c1OC (stereo unspecified)
  -9 | / | -3% | 3.9 | -0.7 | -2%
- O=C(O)COc1ccccc1/C=N/NC(=O)CN1CCN(Cc2ccccc2Cl)CC1
  16 | -9.5% | 6% | -3.9 | 1.0 | 2%
- N#Cc1ccccc1OCC(=O)N1CCN(c2ccccc2F)CC1
  -4 | 0.3% | / | / | -1.3 | /
- CCC(C)NC(=O)c1ccccc1NC(=O)CN(c1ccc(OC)cc1)S(C)(=O)=O (stereo unspecified)
  -12 | -3.3% | 2% | 0.1 | -0.3 | 12%
- CN(C)c1ccc(CNC(=O)CCS(=O)(=O)c2ccc3c(c2)n(C)c(=O)c(=O)n3C)cc1
  -2 | -4.5% | 2% | -2.5 | -0.5 | -10%
- CC1(C)CC(CC(=O)O)CC(C)(C)N1
  -6 | -2.7% | 9% | -3.8 | 0.7 | 16%[15.4 µM]
- COc1cc(-c2ccno2)ccc1S(=O)(=O)N1CCN(c2ccccc2)CC1
  2 | -1.4% | / | / | 2.3 | /
- CC(CCc1ccccn1)C(=O)C(C)CCc1ccccn1 (stereo unspecified)
  9 | 0.0% | 15% | / | -0.5 | 12%[15.4 µM]
- CC(C)(C)NC(=O)c1cnn(-c2ccccc2)c1C1CCN(C(=O)OC(C)(C)C)CC1
  3 | 1.5% | / | / | 0.6 | /
- CC1=CC(C)[C@@H]2COC(c3ccc(O)cc3)[C@H]1C2C (stereo partly specified)
  20 | 1.1% | 3% | -4.8 | 2.3 | 15%
- CCOC(=O)C(O)C1CCc2c([nH]c3ccc(C)cc23)C1=O (stereo unspecified)
  -1 | / | 3% | -2.9 | -0.2 | -6%[15.4 µM]
- COc1ccc(CCN2C(=O)c3oc4cc(C)cc(C)c4c(=O)c3C2c2ccc(F)cc2)cc1OC (stereo unspecified)
  -15 | 0.2% | / | / | 2.3 | /
- CCc1nnc(NS(=O)(=O)c2ccc(NC(=S)NC(=O)c3ccc(OC)c(OC)c3)cc2)s1
  17 | 2.4% | ? | 6.7 | 1.3 | 22%
- COc1ccc(O)c(C2=Nc3ccccc3N=C(c3ccccc3)C2)c1
  11&37 | -1.2% | -2% | 2.9 | 0.5&2.2 | 4%[15.4 µM]
- COc1ccc(CN2CCCC(N3CCc4ccccc4C3)C2)c(O)c1 (stereo unspecified)
  0 | -0.2% | -2% | -0.4 | -0.2 | 5%
- Cc1c(Br)cccc1NC(=O)c1sccc1-n1cccc1
  12 | 8.9µM* | ? | 0.3 | 3.9 | -9%[15.4 µM]
- CCOc1cc(C(=O)OC(C)C(=O)Nc2ccc(NC(C)=O)cc2)ccc1OCC(=O)N1CCCCC1 (stereo unspecified)
  -4 | 1.1% | 6% | / | 0.8 | 7%[15.4 µM]
- Cc1ccc(NC(=O)CC(C(=O)O)c2ccccc2)cc1 (stereo unspecified)
  -20 | -2.2% | 7% | 0.8 | 0.4 | 2%
- C/C(=N/OC(=O)c1c(-c2ccccc2Cl)noc1C)c1cnccn1
  -2 | / | -7% | -1.4 | 0.2 | 16%
- Cc1ccc(CNC(=O)Nc2ccc(F)cc2)n1C
  61 | -9.1% | 2% | -9.0 | 0.6 | ?
- CCOc1ccc(-c2nc3scc(-c4cccs4)c3c(=O)[nH]2)cc1
  4 | / | 4% | 5.9 | -0.5 | -6%[15.4 µM]
- COC(=O)CN(c1cc(Cl)ccc1OC)S(=O)(=O)c1ccc(C)cc1
  -5 | / | -6% | -6.2 | 2.1 | 0%[15.4 µM]
- COc1cccc(OCCCOc2ccc([N+](=O)[O-])cc2Cl)c1
  -2 | -3.0% | -11% | 7.3 | 0.4 | 1%
- Cc1cc(SCC(=O)NCc2ccccc2Cl)nc(=O)[nH]1
  1 | -0.1% | / | / | -0.2 | /

# Quoted from the listing.
# In TRPML1 ag, CCOC(=O)C(O)C1CCc2c([nH]c3ccc(C)cc23)C1=O (stereo unspecified) shows -0.2
# In TRPML1 ag, CCc1ccc(NC(=O)Cn2c(=O)oc3cc(S(=O)(=O)N4CCCCCC4)ccc32)cc1 shows 0.5

# Part of the list above, reduced to TRPML1 inh and gsp ag.
SMILES	TRPML1 inh	gsp ag
Cc1ccc(CNC(=O)Nc2ccc(F)cc2)n1C	61	?
CCOc1ccc(-c2nc3scc(-c4cccs4)c3c(=O)[nH]2)cc1	4	-6%[15.4 µM]
COC(=O)CN(c1cc(Cl)ccc1OC)S(=O)(=O)c1ccc(C)cc1	-5	0%[15.4 µM]

# Compounds were not picked by outcome. Share with any hit: about 2.1%.
